PrP UTR inh: suppresses PrP 5' UTR mRNA reporter expression; cell-based PrP 5' UTR mRNA reporter, plate reader; 0.35% of 340,000 active; inhibition, % (concentration not given with the values);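 active means every replicate at 50% or more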;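 further: 0 = median of the neutral control wells; tested in H4 reporter cells; numbers are from one replicate; inactives centre near -14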
BJeLR lethal: kills HRASV12-expressing BJeLR cells. BJeLR (HRASV12) viability, CellTiter-Glo ATP luminescence, 48 h; reference of the scale not given here. inhibition, % (test concentration not listed). 0.17% of 300,000 active. AID 1554;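 active means replicate mean above 50%; inconclusive means above 50% but judged a plate artefact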;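 further: 50 nL library stock added to about 25 µL; numbers are from one replicate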
Autofluor counter: flagged as autofluorescent in microsphere protease counterscreen; compound autofluorescence counterscreen, microsphere flow cytometry; hits give high values; fluorescence intensity (concentration not given with the values); 3.1% of 360,000 active;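 active means at least 3 SD above the mean of all compounds, about 16000 in these data; inconclusive means too few beads counted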;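 further: 100 nL of 1 mM stock went into each well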
Sa RN4220 lethal: kills Staphylococcus aureus RN4220. S. aureus RN4220 growth, OD600, 16 h. inhibition, % (test concentration not listed). AID 1259311. 0.33% of 330,000 active;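 active means z-score of -3 or lower and OD600 up to 0.18 on both plates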;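 further: plate controls were untreated cells for no effect and reference antibiotic for full effect; stock transfer was 100 nL into about 80 µL; one replicate is shown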
Sa ugtP lethal: growth inhibition of S. aureus ugtP deletion strain; S. aureus RN4220 ugtP deletion, OD600 growth, 16 h; some inactives read as strong as hits; growth inhibition, % (no concentration beside the values); 0.54% of 330,000 active;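 active means z-score under -3 and OD600 up to 0.15 on both plates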;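 further: plate controls were untreated wells for no effect and antibiotic for full effect; wells of about 80 µL received 100 nL stock; the first replicate is given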
Mtb hypoxia rep: reduces hypoxia-regulated biosensor signal in M. tuberculosis; fluorescence inhibition, % (test concentration not listed); M. tuberculosis hypoxia-regulated fluorescent reporter, fluorescence; AID 1159583; 0.1% of 300,000 active;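 active means 35 to 45% if threefold the growth effect, above 45% if 1.5-fold the growth effect; inactive means the rest, general growth blockers included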;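 further: wells of about 50 µL received 100 nL stock; 0% = vehicle wells and 100% = reference inhibitor wells; whole bacteria with a GFP reporter of the hypoxia response; strong numbers were not always called active; many hits fall short of the cut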
Mtb hypoxia rep growth: further read-out of Mtb hypoxia rep, marked with its call; growth inhibition, %; measured here: M. tuberculosis growth (absorbance);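 0% = vehicle and 100% = reference antibiotic; read after six days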
Starred values were filed as active, the others as inactive; ? = inconclusive; / = no result given; & = joins results of further samples. The order is random, and some 3.9% of all compounds hit somewhere here.

SMILES	PrP UTR inh	BJeLR lethal	Autofluor counter	Sa RN4220 lethal	Sa ugtP lethal	Mtb hypoxia rep	Mtb hypoxia rep growth
Cc1ccc(C)c(S(=O)(=O)N2CCCC2CNC(=O)C(=O)NCCN2CCOCC2)c1 (configuration not stated)	-7	2	?	2.2	11	8	4
O=C(c1cc2nc(-c3ccco3)cc(C(F)(F)F)n2n1)N1CCN(c2ccccc2)CC1	-14	1	10366	3.1	-2	3	5
N#Cc1ccsc1NC(=O)COC(=O)C1=NNC(=O)CC1	-8	/	8423	3.4	-3	-5	5
Cc1cc(C)cc(N2C(=O)C3C4C=CC(C4)C3C2=O)c1 (configuration not stated)	-6	5	2905	-12	-7	13	7
Clc1ccc(OCCCCN2CCc3ccccc3C2)cc1	-12	/	2091	4.1	6	7	-3
CC1Cc2ccccc2N1C(=O)CCn1cccn1 (configuration not stated)	0	3	5683	-0.8	3	3	-6
Nc1c(C(=O)N2CCOCC2)oc2ccccc12	-21	14	5495	1.6	1	2	-12
CCOC(=O)N1CCN(S(=O)(=O)c2ccc(-n3cnnn3)cc2)CC1	-14	6	5844	1.0	2	-3	-5
CCOc1cc2c3c(c1)C(C)=CC(C)(C)N3C(=O)C2=O	-13	-3	3702	/	/	/	/
CCCCNC1=CC(=O)C(NCCCC)=CC1=O	-13	/	4004	-1.8	16	-6	-1

6 entries out of the list, sorted by SMILES length, ascending.
SMILES	PrP UTR inh	BJeLR lethal	Autofluor counter	Sa RN4220 lethal	Sa ugtP lethal	Mtb hypoxia rep	Mtb hypoxia rep growth
CC1Cc2ccccc2N1C(=O)CCn1cccn1 (configuration not stated)	0	3	5683	-0.8	3	3	-6
Nc1c(C(=O)N2CCOCC2)oc2ccccc12	-21	14	5495	1.6	1	2	-12
Clc1ccc(OCCCCN2CCc3ccccc3C2)cc1	-12	/	2091	4.1	6	7	-3
N#Cc1ccsc1NC(=O)COC(=O)C1=NNC(=O)CC1	-8	/	8423	3.4	-3	-5	5
Cc1cc(C)cc(N2C(=O)C3C4C=CC(C4)C3C2=O)c1 (configuration not stated)	-6	5	2905	-12	-7	13	7
O=C(c1cc2nc(-c3ccco3)cc(C(F)(F)F)n2n1)N1CCN(c2ccccc2)CC1	-14	1	10366	3.1	-2	3	5

Remaining list, next part
SMILES	PrP UTR inh	BJeLR lethal	Autofluor counter	Sa RN4220 lethal	Sa ugtP lethal	Mtb hypoxia rep	Mtb hypoxia rep growth
COc1cccc(/C=C2/SC(=S)N(CC(=O)NC3C=CS(=O)(=O)C3)C2=O)c1 (configuration not stated)	-7	4	4875	1.3	2	-2	2
CCN1CCN(c2nc3c(c(=O)[nH]c(=O)n3C)n2Cc2ccccc2F)CC1	-37	-5	3386	2.1	-3	14	1
O=C(CSc1nnc(SCc2ccc(Cl)cc2)s1)NN=Cc1ccccc1Cl	/	/	/	0.0	-9	7	6
O=C(c1ccc(NS(=O)(=O)c2ccc3[nH]c(=O)[nH]c3c2)cc1)N1CCCC(C(F)(F)F)C1 (configuration not stated)	-2	-5	5158	-0.5	3	2	0
Cc1ccc(-n2c(-c3ccccc3)cc(C=NNC(=O)CC#N)c2-c2ccccc2)cc1	/	/	/	-14	-25	-2	3
CCSc1ccccc1C(=O)Nc1ccc([N+](=O)[O-])cc1OC	-6	8	3336	7.5	10	11	11
O=C(Nc1ccn(Cc2ccccc2F)n1)c1ccc(COc2ccc(Cl)cc2Cl)o1	-28	8	2840	0.5	-17	-2	13
Cc1ccc(S(=O)(=O)N2CCC(C(=O)Nc3nnc(-c4ccco4)s3)CC2)cc1	-6	3	12417	2.6	2	-2	-9
COc1ccccc1CN(C)C(C)C(=O)Nc1cccc(C(C)=O)c1 (configuration not stated)	-24	-10	8919	2.8	5	-11	4
CCC1=C(OC(=O)N(CC)CC)N2C(=O)OC(=NCCc3c[nH]c4ccccc34)[C@]2(C)C2C1=CCC1C(=O)N(C)C(=O)C12 (some centres not stated)	/	/	/	6.3	-1	20	14
C=CCN1C(=O)c2ccc(C(=O)N(C)CC(=O)Nc3ccc(Br)cc3C)cc2C1=O	-12	-6	5738	-0.6	12	7	15
COc1ccc(C(C)=O)cc1CC(=O)Nc1cccc(S(=O)(=O)N2CCOCC2)c1	-4	/	2992	2.1	-2	22	33
Cc1ccc(NC(=O)c2ccc3c(c2)OCCO3)cc1C	7	4	5579	7.8	11	3	-5
O=c1c2ccccc2c(C=NCCO)c(O)n1-c1ccccc1	-24	-1	9417	0.4	-1	11	5
CCOc1ccc(S(=O)(=O)Nc2cccc(C(=O)NCC3CCCO3)c2)cc1 (configuration not stated)	-19	3	6293	3.0	7	12	3
Cc1ccc(-c2ccnc3c(Cl)c(C)nn23)cc1	-13	-6	3430	2.5	8	7	3
Cc1ccc(S(=O)(=O)NCCC(=O)N2CC(C)OC(C)C2)cc1 (configuration not stated)	75*	-1	?	2.9	4	8	2
CN(CC(=O)Nc1cccc(F)c1)CC(=O)Nc1cccc2ccccc12	-12	/	3541	1.0	-7	-2	5
COc1ccc(C2(C(=O)NC(C)C)CCCC2)cc1OC	-1	3	7950	4.2	2	7	0
CC(C)Oc1ccc(Br)cc1C=NNC(N)=S	/	/	/	1.8	7	-3	2
NC(=S)N/N=C/c1ccccc1OCCSc1ccc(Cl)cc1	-27	1	2546	/	/	/	/
O=C(NN1CCOCC1)c1ccc(F)cc1	-14	3	5481	-1.1	5	2	0
O=C(N/N=C/c1cccs1)C1COc2ccccc2O1 (configuration not stated)	-33	-4	8094	/	/	/	/
COc1ccc(N2C(=O)C(F)(F)C2c2ccc(C)cc2)cc1OC (configuration not stated)	-12	-2	4613	0.1	3	-8	-1
CCOC(=O)CCCCCC(=O)Nc1ccc2c(c1)CC(=O)N([C@H](C)CO)C[C@H](C)[C@H](CN(C)S(=O)(=O)c1ccc(OC)cc1)O2	-23	/	3463	-16	-18	-1	18
COc1cc(C(=O)N(Cc2ccc(F)cc2)C2CCS(=O)(=O)C2)cc(OC)c1OC (configuration not stated)	-12	-6	17106*	1.0	9	9	2
O=C1NC(=O)C(c2ccccc2)(c2ccccc2)N1	-9&-10	3&-17	4615&5468	3.6	6	3	-6
O=C(NCc1cccc(CNC(=O)Nc2cccc(O)c2)c1)Nc1cccc(O)c1	-19	0	3181	-3.5	-7	2	5
O=C(COC(=O)C1=COCCO1)Nc1cccc(S(=O)(=O)N2CCOCC2)c1	-16	-2	5724	4.7	5	7	5
COc1ccccc1CN1CC(C(=O)NCC2CCCO2)CC1=O (configuration not stated)	-10	1	9507	2.6	1	3	6
Cc1ccc(-n2nc3c(c2NC(=O)c2ccc4c(c2)OCO4)CS(=O)(=O)C3)cc1C	-5	-9	4195	3.5	3	9	0
COc1ccc(-c2nn(Cc3ccccc3)cc2C(=O)NC2CC2)cc1OC	-8	/	4025	3.3	-2	22	10
Cc1ccc(OCCSc2ncnc3nc[nH]c23)cc1	-51	0	3184	3.5	24	7	8
COc1ccccc1CNS(=O)(=O)c1cc2c3c(c1)CCN3C(=O)CC2	-16	10	?	6.5	8	1	-6
O=C(CCN1C(=O)/C(=C/C=C/c2ccccc2)SC1=S)Nc1ccccn1	-39	7	3994	0.3	9	-3	-2
COc1ccc(NC(=O)CN(C)C(=O)c2sc3ccccc3c2Cl)cc1	-5	2	?	0.8	1	-8	-3
COc1ccc(C2CC(c3cccs3)=NN2C(=O)COC(=O)c2cncc(Br)c2)cc1OC (configuration not stated)	14	7	5796	-5.2	11	8	0
CC(C)NC(=O)Nc1ccc2c(c1)C(=O)N([C@H](C)CO)C[C@H](C)[C@@H](CN(C)S(C)(=O)=O)O2	-17	/	3183	6.0	6	-11	1
O=C(NN=Cc1cccc(OCc2ccccc2)c1)c1ccc(Br)cc1	/	/	/	4.5	-2	7	2
COc1ccc(CNC(=O)COC(=O)CCOc2ccc(C)cc2)cc1OC	-13	-7	?	1.0	4	8	-4
CCCCCCCCC(=O)NN=Cc1cccc(Br)c1	/	/	/	-7.8	-14	2	3
COc1cccc(CC(=O)N[C@@H](CCSC)c2nc3ccccc3[nH]2)c1	-21	-1	3190	17	4	12	20
O=C(c1cnc2c(c1)COc1ccc(Cl)cc1-2)c1ccccc1O	-27	/	3569	6.6	14	/	/
CN(C)S(=O)(=O)c1ccc(Cl)c(NC(=O)COC(=O)CN2C(=O)C3CCCCC3C2=O)c1 (configuration not stated)	-43	1	3202	10	6	15	20
COc1ccc(NC2CCCN(C(=O)c3cccnc3)C2)cc1 (configuration not stated)	-19	-3	4154	0.4	4	2	-7
O=C(O)COCc1nc2ccccc2[nH]1	-4	-4	25242*	5.5	5	-2	-3
O=C(COc1ccccc1)N1CCN(CC2CC3C=CC2C3)CC1 (configuration not stated)	-13	4	7823	3.1	5	17	21
O=C(N/N=C\c1ccc(Cl)cc1)c1sccc1-n1cccc1	-12	3	3596	/	/	/	/
CCCC(O)(CCN(C)C)c1ccc(OC)cc1 (configuration not stated)	5	0	2201	4.2	-2	/	/
Cc1ccccc1CSCCNC(=O)CN(c1ccc2c(c1)OCO2)S(C)(=O)=O	-29	0	6105	8.7	1	4	-4

Overlap with the part before: 2 compounds, then new ones.
SMILES	PrP UTR inh	BJeLR lethal	Autofluor counter	Sa RN4220 lethal	Sa ugtP lethal	Mtb hypoxia rep	Mtb hypoxia rep growth
CCCC(O)(CCN(C)C)c1ccc(OC)cc1 (configuration not stated)	5	0	2201	4.2	-2	/	/
Cc1ccccc1CSCCNC(=O)CN(c1ccc2c(c1)OCO2)S(C)(=O)=O	-29	0	6105	8.7	1	4	-4
COc1cccc2cc3c(=O)n(-c4ccccc4)nc-3oc12	-6	-1	5432	1.5	-6	-9	-6
CCOC(=O)C1CCCN(S(=O)(=O)c2cc(C(=O)OC)n(C)c2)C1 (configuration not stated)	-12	8	6286	4.1	9	6	5
COc1cc(NC(=O)c2ccnc(N)c2)cc(C(=O)Nc2cccc(C(F)(F)F)c2)c1	-11	14	3531	/	/	/	/
Cc1nc2nc(-c3ccccc3)[nH]n2c(=O)c1Cc1ccccc1	-23	/	2411	-1.2	1	/	/
ON=Cc1cn(-c2ccccc2)nc1-c1cccnc1	/	/	/	-4.1	4	7	1
CC(=O)Nc1ccc(S(=O)(=O)N2CCC(NC(=O)c3ccccc3)CC2)cc1	-26	-2	3575	2.2	0	9	-4
Cc1cc(C(=O)CSc2nnnn2-c2ccc(O)cc2)c(C)n1C	-38	-5	4671	9.7	-2	9	4
Cc1sc2ncnc(N3CCOCC3)c2c1C	-10	6	12953	2.1	2	1	2
O=C(NC(Cc1ccccc1)C(=O)O)/C(=C/c1ccccc1)NC(=O)c1cccc(Br)c1 (configuration not stated)	-23	-1	2607	/	/	/	/
CCn1c(=O)c2sccc2n(Cc2cc(C(=O)OC)ccc2OC)c1=O	-4	4	4536	2.9	7	2	-5
CCN(CC)c1ccc(/C=N/NC(=O)CN2CCCc3ccccc32)cc1	-38	-7	2316	/	/	/	/
COc1ccccc1NC(=O)CN(C)S(=O)(=O)c1ccc(F)cc1	-26	9	4178	-0.5	6	/	/
O=C(CSc1nnc(-c2ccc(Cl)cc2)o1)NNC(=O)c1ccncc1	-7	-4	?	/	/	/	/
CC1CCN(C(=O)CCc2nnc(-c3ccccc3)o2)CC1	-49	-4	4002	3.2	5	9	-7
O=C(/C=C/c1cc([N+](=O)[O-])ccc1OC(F)F)Nc1cccc2ccccc12	-8	-3	2795	5.2	11	9	4
O=C(c1ccc(Cl)c(Cl)c1)N1CCC(=O)N(C(COCc2ccc(Cl)cc2)Cc2ccccc2)CC1 (configuration not stated)	-1	-3	2848	-5.9	-18	6	4
CCN(CC)c1c([N+](=O)[O-])c(=O)oc2ccccc12	-13	-3	3424	-2.2	1	6	3
C#CCOCCOCCOCCNc1nc(N2CCN(C(=O)Cn3cc(CCCN=C(N)N)nn3)CC2)nc(N2CCN(C(=O)C(C(C)CC)n3cc(CCCCN)nn3)CC2)n1 (configuration not stated)	/	/	/	0.5	-7	10	13
O=C1C=C(NNC(=O)c2ccncc2)CC(c2ccccc2)C1 (configuration not stated)	-38	6	4231	5.7	13	7	6
O=C(c1ccc(N2CCCC2)c([N+](=O)[O-])c1)N1CCN(c2ccccn2)CC1	-21	1	4377	2.8	8	8	-1
O=C(O)c1cnnc2ccccc12	-22	/	3580	0.6	1	17	13
CCN(C(=O)c1cc(S(=O)(=O)N2CCCC2)ccc1C)C1CCS(=O)(=O)C1 (configuration not stated)	-12	/	9252	6.4	4	3	2
CSc1cnc2c(=O)n(C)c(=O)[nH]c2n1	-12	1	2174	6.4	-4	9	0
